Screening results: PubChem BioAssay, Broad Institute
Beta apoptosis: beta cell apoptosis inhibition; INS-1E cytokine-induced death, ATP luminescence, 48 h; percent of positive-control rescue, neutral wells zero; actives 0.8% (n = 300,000); protection from apoptosis, % (concentration not given with the values);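 active = all replicates at 75% or more, or half of them and the mean; inconclusive = half reach 75% but not the mean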;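 also: 0% = cytokine-treated negative control wells and 100% = positive control rescue; higher means more ATP so stronger rescue from cytokine killing; wells of about 40 µL received 100 nL stock; the first replicate is given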
Ecoli rRNA inh: selective bacterial rRNA inhibition in E. coli; E. coli WT GFP vs humanized-ribosome RFP mutants, fluorescence, 24 h; active compounds read low; DMSO median 0, no signal -100; GFP signal change (wild-type ribosome), % (no concentration beside the values); actives 1.6% (n = 350,000); AID 720706;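 active = significant combined selectivity score with lowered wild-type GFP, culture density cut under 30%, mutant RFP and density less affected; inactive = any of these conditions unmet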; also: one replicate is shown; some compounds called inactive have numbers as strong as hits
FGF22 binding: shifts melting point of recombinant human FGF22 | Q9HCT0 | recombinant FGF22 thermal shift, SYPRO orange fluorescence; percent of sucrose octasulfate shift, DMSO zero | calls only at 9.99 µM | actives 1.5% (n = 340,000);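 active = melting point raised past a set limit in the mean and every replicate; inconclusive = no clear call; three in four hits are not shown here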
Target sequence (Q9HCT0 whole entry, looked up): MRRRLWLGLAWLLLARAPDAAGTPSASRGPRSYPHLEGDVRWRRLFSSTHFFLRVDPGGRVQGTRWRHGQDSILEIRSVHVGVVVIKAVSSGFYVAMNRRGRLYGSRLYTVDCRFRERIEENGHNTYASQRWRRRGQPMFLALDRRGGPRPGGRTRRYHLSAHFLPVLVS
RanGTP-Imp inh: disruptors of Ran-importin-beta complex formation – biochemical, FRET, CFP-Ran, YFP-importin-beta, homogeneous, primary screen; inhibition, % (concentration not given with the values); actives 1.1% (n = 300,000); cell-free CFP-Ran/YFP-importin-beta FRET ratio;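 active = most replicates above 15%; inconclusive = exactly half above 15%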;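 also: 0% = DMSO wells and 100% = Ran loaded with GDP instead of GTP; wells of about 40 µL received 100 nL stock; the first replicate is given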
ALR inh: blocks human ALR sulfhydryl oxidase activity; purified ALR, DTT oxidation, H2O2 HRP-luminol luminescence; inhibition, % (concentration not given with the values); actives 3.8% (n = 290,000); AID 485317;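 active = mean and each replicate at 75% or more; inconclusive = only one of the two met; inactive = neither met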;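 also: stock transfer was 7.5 nL into about 7.5 µL; 0% = neutral wells and 100% = wells with inactivated enzyme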
Target sequence (P55789 whole entry, looked up): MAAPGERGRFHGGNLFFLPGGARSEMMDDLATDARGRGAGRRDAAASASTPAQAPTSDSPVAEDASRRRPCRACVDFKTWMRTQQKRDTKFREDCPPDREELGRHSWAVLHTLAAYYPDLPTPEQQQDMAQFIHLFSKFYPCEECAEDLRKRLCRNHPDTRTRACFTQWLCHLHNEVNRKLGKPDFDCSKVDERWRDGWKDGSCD
Calb FLC: C. albicans growth modulation with fluconazole. actives 0.57% (n = 300,000). C. albicans CaCi-2 (fluconazole-resistant clinical isolate) + fluconazole, Alamar Blue growth, 48 h. AID 1979. growth inhibition, % (no concentration beside the values);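 active = most replicates above 75%; inconclusive = exactly half above 75%; inactive = most below 75%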;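 also: all wells also contain fluconazole at 8 µg/ml as a sub-toxic cotreatment; 0% = median of DMSO wells and 100% = median of geldanamycin control wells; wells of about 8 µL received 7.5 nL stock; the first replicate is given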
T cruzi repl: T. cruzi replication inhibition | T. cruzi beta-gal in NIH3T3, luminescence, 90 h | inhibition, % (no concentration beside the values) | AID 1885 | actives 1.4% (n = 300,000);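 active = mean inhibition across valid replicates above about 55%, limit read from the data; inconclusive = mean below that limit but half or more replicates reach it; inactive = mean below it, under half of replicates reach it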;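 also: signal also drops with host cell toxicity which is not excluded here; 0% = plate median of DMSO wells and 100% = zero luminescence signal; higher percent means less beta-gal luminescence so fewer parasites; stock transfer was 50 nL into about 50 µL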
MLL AF4-AF9 inh: inhibitors of human MLL-AF4/AF9 interaction. AID 651704. inhibition, % at 10 µM. actives 0.47% (n = 350,000). P42568. AlphaScreen, biotin-AF4 peptide binding to FLAG-AF9;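 active = every replicate reaching a set inhibition limit, whatever the replicate mean, cut at about 25% in these data; inconclusive = mean inhibition reaches that limit but some replicates miss it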;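 also: 0% = plate neutral control median and 100% = total signal loss; the record names both 10 and 1 µM as test concentration; the first replicate is given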
Target sequence (P42568 whole entry, looked up): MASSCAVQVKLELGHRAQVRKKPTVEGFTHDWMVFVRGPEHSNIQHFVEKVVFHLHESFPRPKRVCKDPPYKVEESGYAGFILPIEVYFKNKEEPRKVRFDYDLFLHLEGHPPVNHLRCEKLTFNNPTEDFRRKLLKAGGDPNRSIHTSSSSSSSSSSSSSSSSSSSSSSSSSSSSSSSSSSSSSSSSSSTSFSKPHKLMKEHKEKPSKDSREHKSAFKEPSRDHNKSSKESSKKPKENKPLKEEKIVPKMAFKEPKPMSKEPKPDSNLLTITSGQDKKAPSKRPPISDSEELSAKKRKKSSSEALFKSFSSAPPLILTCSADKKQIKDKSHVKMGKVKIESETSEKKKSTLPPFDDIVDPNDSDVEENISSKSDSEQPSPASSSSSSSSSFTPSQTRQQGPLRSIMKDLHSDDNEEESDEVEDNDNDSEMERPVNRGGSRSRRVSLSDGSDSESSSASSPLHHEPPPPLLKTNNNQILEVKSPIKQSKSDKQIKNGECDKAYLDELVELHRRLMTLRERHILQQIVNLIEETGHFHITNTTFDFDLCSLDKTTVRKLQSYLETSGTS
Ecoli rRNA inh OD600: also measured in Ecoli rRNA inh; calls as there; OD600 change, %; measured here: OD600 growth;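 optical density of the mix in the first replicate; 0 = DMSO median and -100 = no signal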
Ecoli rRNA inh RFP: also measured in Ecoli rRNA inh; calls as there; RFP signal change, %; measured here: RFP humanized mutant strains;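 first replicate; 0 = DMSO median and -100 = no signal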
* marks the source's active call; other numbers are inactive results; i = inactive; ? = inconclusive; . = not tested or not shown. A portion of the library. The share of hits here may be higher or lower than overall.

SMILES | Beta apoptosis | Ecoli rRNA inh | Ecoli rRNA inh OD600 | Ecoli rRNA inh RFP | FGF22 binding | RanGTP-Imp inh | ALR inh | Calb FLC | T cruzi repl | MLL AF4-AF9 inh
CC12CN3CC(C)(CN(C1)C3c1ccc(F)cc1)C2 (centres undefined) | -1.6 | 4.8 | -0.3 | -6.4 | i | -2.7 | -2.3 | 0.4 | -11.6 | -1.8
COc1ccc(-c2nc(N)n(C(C)=O)n2)cc1 | -1.4 | . | . | . | . | 1.4 | 4.8 | 4.6 | 12.7 | .
Cc1ccc(N2C(=O)[C@@H]3Cc4ccccc4CN3C2=O)cc1 | -0.3 | . | . | . | . | . | -19.3 | -6.0 | 13.9 | .
O=C(Cn1nnc(-c2ccc(Cl)cc2)n1)NCC1CCCCC1 | -1.1 | -2.0 | 12.7 | -0.8 | i | -2.3 | -4.4 | -29.2 | -9.3 | 1.6
COc1ccc(NC(=O)N[C@@H](Cc2ccccc2)C(=O)NN)cc1 | -2.3 | 3.0 | -15.4 | -3.9 | i | 0.8 | 0.6 | 23.2 | -11.3 | .
CCOC(=O)C(CC)n1nc(C)n2c(cc3sccc32)c1=O (centres undefined) | -3.8 | 0.5 | 2.7 | -4.6 | i | 7.6 | -4.8 | 49.6 | 2.1 | -2.5
COc1ccc(-c2ccc(=O)n(Cc3ccc([N+](=O)[O-])cc3)n2)cc1 | 7.6 | 4.1 | 3.0 | 2.7 | i | 1.9 | -7.0 | 16.2 | -3.9 | 13.8
CCOc1ccccc1N(CC(=O)N/N=C/c1cc(Br)ccc1OC)S(C)(=O)=O | -3.0 | . | . | . | . | 0.0 | -13.8 | 4.0 | -3.6 | .
COC1CCN(C(=O)c2ccc(OC3CCN(CCc4ccccc4)CC3)cc2)CC1 | . | 10.9 | 9.0 | -0.1 | . | 3.2 | -0.2 | 9.2 | -37.1 | -0.5
COC(=O)CCC(=O)N1CCCC(C(=O)c2cc(F)ccc2F)C1 (centres undefined) | -3.6 | 0.1 | 6.2 | -2.4 | i | 0.7 | . | 4.1 | -20.1 | -5.9
CCOC(=O)C1CCCN(Cc2c(F)cccc2Cl)C1 (centres undefined) | -1.7 | 0.8 | -5.7 | -6.9 | i | 2.5 | 98.5* | -17.0 | 7.2 | 4.6
CC(=O)c1ccc(OCc2ccc(C(=O)c3ccccc3)cc2)cc1 | 51.3 | 9.1 | 4.9 | 2.5 | i | -0.3 | -0.5 | 0.0 | 21.6 | -2.6
COc1ccc(CO/N=C/c2c(C)[nH]c(=O)[nH]c2=O)cc1 | -2.3 | . | . | . | . | 2.8 | -0.5 | -0.6 | 0.2 | .
Cc1ccc(S(=O)(=O)NCCC(=O)N2CCCCCCC2)cc1 | 2.5 | -0.3 | 2.9 | 1.7 | i | -5.2 | 7.5 | 1.2 | -6.3 | -0.9
O=c1c2ccccc2nc2n1C(CSCc1cccc(C(F)(F)F)c1)CS2 (centres undefined) | 52.7 | . | . | . | . | 6.2 | . | -3.4 | -35.5 | .
COc1cccc(CN(Cc2ccco2)C(c2ccc(F)cc2)c2nnnn2C(C)(C)C)c1 (centres undefined) | 15.1 | . | . | . | . | 0.1 | -2.0 | -4.2 | 33.5 | .
CN(C)S(=O)(=O)N1CCN(CC(=O)Nc2ccc(F)cc2)CC1 | -2.8 | -0.6 | 3.5 | 0.3 | i | -0.3 | -2.5 | -8.3 | -14.9 | -8.1
Cc1ccc(-c2nnc(-c3ccccc3)c(N3CCOCC3)n2)cc1 | 1.5 | . | . | . | . | -1.1 | 0.1 | -26.2 | 40.2 | .
CC(C)CCN(C(=S)Nc1cccc(F)c1)C(C)c1cccs1 (centres undefined) | -9.2 | -20.0 | -22.6 | -4.9 | . | 4.6 | -2.3 | 1.0 | -5.3 | 3.7
COC(=O)c1ccc2c(=O)n(CCN3CCOCC3)c(SCC(=O)Nc3ccccc3Cl)nc2c1 | -9.4 | 5.8 | -2.5 | -3.6 | i | 0.5 | 72.0 | 8.3 | 2.9 | -0.6
O=C(Nc1ccc(N2CCCCCC2)cc1)c1ccc[nH]1 | 1.1 | 1.1 | -21.6 | -4.4 | i | . | 99.1* | . | . | 34.0*
CCOC(=O)C(NCCCO)c1ccccc1 (centres undefined) | -8.6 | . | . | . | . | 1.4 | -1.9 | -10.7 | -16.6 | .
COc1ccc(-n2c(CN3CCC(C)CC3)nc3ccc([N+](=O)[O-])cc3c2=O)c(OC)c1 | -1.0 | 10.0 | 3.9 | -2.8 | i | 4.1 | -11.6 | 8.5 | 34.7 | 7.6
Cc1cccc(OCC(=O)N/N=C/c2cn[nH]c2-c2ccc(Cl)c(Cl)c2)c1 | -5.7 | 0.9 | 7.8 | 3.0 | . | -2.6 | -15.4 | -8.7 | -4.3 | .
c1ccc(CSc2nnc3c4ccccc4c4ccccc4c3n2)cc1 | -0.6 | . | . | . | . | -1.1 | . | 2.2 | -6.6 | .
c1coc(C2=Nc3cccc4cccc(c34)N2)c1 | -4.1 | 13.6 | 13.4 | -1.2 | i | 6.6 | . | 20.2 | 9.3 | 3.3
COc1nc(N(C)C)nc(N(C#N)CCOC(C)=O)n1 | -0.9 | 2.0 | -0.4 | -3.9 | i | 0.9 | -2.6 | -11.2 | 2.5 | -3.1
O=C(NNC(=O)NC1CCCCC1)NC1CCCCC1 | -4.3 | 16.4 | 10.7 | -1.5 | i | -3.9 | 1.1 | -2.4 | -5.0 | -1.3
Cc1ccc(N(CC(N)=O)C2SC(=O)NC2=O)cc1 (centres undefined) | 0.9 | 6.3 | 18.3 | 1.6 | i | 4.4 | -3.8 | -25.2 | -12.6 | -11.4
CCOc1cc(N2CCOCC2)c(OCC)cc1NC(=O)c1cccc(S(=O)(=O)N2CCOCC2)c1 | 2.8 | -0.7 | 5.4 | 0.5 | i | . | 0.2 | . | . | -5.3
COCCOC(=O)c1c(NC(=O)CN2CCc3ccccc32)sc(C(N)=O)c1C | 2.7 | -2.1 | -11.2 | 2.0 | i | 0.7 | . | 8.9 | -1.4 | 2.7
CC(=O)c1ccc(S(=O)(=O)Nc2cccc(-c3ccc(N4CCOCC4)nn3)c2)cc1 | 0.4 | -0.1 | 0.4 | 1.6 | i | 3.4 | . | -2.6 | -3.7 | 5.1
O=C(CCS(=O)(=O)c1ccccc1)Nc1nc2cc3c(cc2s1)OCCO3 | -3.1 | -11.5 | -16.9 | 0.1 | i | 0.0 | -12.4 | 81.9* | -5.2 | -10.8
CN1CCN(CCc2cn3ncc(C#N)c3nc2-c2ccc(F)cc2)CC1 | 3.3 | 21.6 | 0.8 | 2.8 | i | -1.6 | -2.2 | -13.0 | 12.3 | -0.5
CC1CCN(S(=O)(=O)c2nnc(NC(=O)c3cccc([N+](=O)[O-])c3)s2)CC1 | 8.7 | . | . | . | . | 0.0 | 7.3 | -15.6 | 3.4 | .
CCOc1c2ccc(C(=O)NCCCCc3ccccc3)cc2nn1CC | . | -25.8 | -33.4 | 13.2 | i | -0.9 | -2.3 | 33.1 | 7.0 | -54.8
COc1cc(SC)ccc1C(=O)OCC(=O)NCCC1=CCCCC1 | -3.2 | -9.6 | -11.0 | -0.3 | i | 8.3 | -9.9 | . | -3.9 | -0.9
CCCOc1cccc(C(=O)Nc2nnn(CCC)n2)c1 | -4.0 | . | . | . | . | -3.6 | -1.7 | -13.8 | -16.5 | .
COc1ccccc1CNC(=O)C1CCC(=O)N1C(C)C (centres undefined) | -10.0 | 12.3 | 22.2 | 3.7 | i | 1.2 | . | 34.2 | -2.6 | 0.3
COc1ccc(OC)c(C2SCCN2S(C)(=O)=O)c1 (centres undefined) | 2.3 | . | . | . | . | 6.4 | -17.2 | 7.1 | 4.7 | .
Cc1nc(NC(=O)/C=C/c2ccccc2)sc1C(=O)NCCO | . | -5.2 | -8.5 | -3.5 | i | 1.7 | -13.3 | ? | -25.3 | 0.0
COc1cc(C2=Nc3c(c(C)nn3-c3ccccc3)P(=O)(N3CCOCC3)O2)cc(OC)c1OC (centres undefined) | . | 10.8 | 4.5 | 1.9 | i | 1.4 | -2.3 | 1.5 | -2.6 | 1.3
CCNc1ccc(C(=O)OC(C(=O)NC(N)=O)C(C)C)cc1[N+](=O)[O-] (centres undefined) | -0.9 | 16.8 | 3.0 | -4.0 | i | 0.3 | -2.7 | 2.1 | -8.5 | -0.2
COc1ccc(S(=O)(=O)N(C)CC(=O)NCCCN2CCOCC2)cc1Cl | -6.6 | 6.1 | 4.0 | -1.2 | i | -2.3 | 0.3 | 3.3 | 6.7 | -1.3
CC(=O)NC(CCS(C)(=O)=O)C(=O)Nc1cccc(C)c1 (centres undefined) | -0.9 | 3.3 | 11.9 | 1.4 | i | 0.2 | -3.5 | 1.0 | -4.2 | -0.6
CCn1c(SCC(=O)N2CCCCC2C)nnc1-c1ccc(S(=O)(=O)N2CCN(C)CC2)cc1 (centres undefined) | -1.6 | . | . | . | . | -0.4 | -9.8 | 35.5 | 11.6 | .
COc1cccc(NC(=O)Nc2ccc(Br)cn2)c1 | -3.8 | 4.6 | 9.8 | -4.8 | i | -2.7 | 1.1 | -3.3 | -5.5 | -0.8
O=C(CCN1C(=O)S/C(=C\c2ccccc2)C1=O)NCCCn1ccnc1 | -0.9 | 1.1 | -1.1 | 1.0 | i | -3.2 | -15.6 | -4.9 | -0.9 | 2.8
Nc1nnc(Cc2c[nH]c3ccccc23)s1 | -6.4 | . | . | . | . | -1.7 | -9.5 | 6.0 | 4.3 | .
N#CC12COC3(CCCCC3C1(C#N)C#N)OC2=N (centres undefined) | 3.0 | 17.2 | -1.5 | 19.6 | i | 33.2* | -34.6 | -2.8 | -12.6 | 7.1
CCC(=O)Nc1cc(-c2nn(C)c(=O)c3ccccc23)ccc1OC | -0.1 | . | . | . | . | 0.9 | 1.1 | 12.3 | -2.9 | .
COc1ccc(C2=NN(c3ccc(C(=O)O)cc3)C(c3ccc(OC)c(OC)c3)C2)cc1 (centres undefined) | -7.3 | -5.7 | -17.2 | -0.5 | i | 8.6 | . | 14.7 | -7.6 | -3.6
Cc1ccnc(NC(=O)c2ccc(S(=O)(=O)N3CCCC3)cc2)c1 | 2.8 | -6.3 | 3.9 | -1.3 | i | . | -1.9 | -0.3 | -8.5 | 8.1
CC(C)Cn1c(N)c(C(=O)CSc2nc3ncc(Cl)cc3[nH]2)c(=O)n(C)c1=O | 23.2 | -0.4 | 5.1 | 4.8 | i | 2.0 | 2.9 | . | 20.0 | 2.2
COc1cc(NC(=O)c2ccc(C)cc2)ccc1NC(=O)c1cc2ccccc2o1 | 2.9 | -1.7 | 11.5 | 2.1 | i | -0.1 | 17.2 | 2.6 | -10.2 | -3.4
Cc1cnc(N)c2c(=O)oc3ccccc3c12 | . | 1.6 | -9.0 | -1.4 | i | 2.6 | -3.8 | 2.0 | -11.5 | -4.6
